JMJD2E inh: qHTS Assay for Inhibitors of Human Jumonji Domain Containing 2E (JMJD2E); Lysine-specific demethylase 4E (Homo sapiens), B2RXH2; AID 2147, 2009; JMJD2E catalytic domain, FDH-coupled NADH fluorescence (FDH is formaldehyde dehydrogenase); Potency, µM (top dose mostly 57.1 µM), without a hit: at the highest dose activity change, negative = inhibition, hits mostly inhibitors; 230,000 compounds, 1.6% hits;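 also: 0% = wells with enzyme and -100% = buffer wells without enzyme; nearly all actives have a fitted effect of over 50% in size; many of its hits are not listed in these tables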
Target sequence (B2RXH2 1-337 limits assumed): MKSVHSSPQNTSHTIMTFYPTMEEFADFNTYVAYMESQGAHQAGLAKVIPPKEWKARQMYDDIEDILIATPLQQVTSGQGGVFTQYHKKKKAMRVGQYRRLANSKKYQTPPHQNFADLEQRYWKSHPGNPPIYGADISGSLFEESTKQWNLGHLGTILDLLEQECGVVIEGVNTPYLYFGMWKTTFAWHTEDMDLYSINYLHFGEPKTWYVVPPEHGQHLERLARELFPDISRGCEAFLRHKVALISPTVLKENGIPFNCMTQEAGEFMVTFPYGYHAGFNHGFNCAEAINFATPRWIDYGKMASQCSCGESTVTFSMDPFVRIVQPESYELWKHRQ
RECQ1 helicase: qHTS Assay for Inhibitors of RecQ-Like Dna Helicase 1 (RECQ1). ATP-dependent DNA helicase Q1 (Homo sapiens), P46063. RECQ1 DNA unwinding, red fluorescence kinetic read. Potency, µM (highest dose often 57.3 µM), for inactives: top-dose activity, negative = inhibition, actives largely listed as inhibitors. 240,000 compounds, 0.54% hits; active = well fitted curve in the direction sought with a large enough effect; inconclusive = small, poorly fitted or top-dose-only effect, or another doubt; inactive = no such curve, though single readings can be large; an effect the other way counts as inactive or inconclusive;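 also: plate controls were vehicle for no effect and no enzyme for full effect; nearly all actives have a fitted effect of over 30% in size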
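50 nM RECQ1T1 preincubated 15 min with compound in Tris pH 8.0 buffer with MgCl2, DTT, Tween-20 and 2.5 ug/ml poly(dI-dC); started with 200 nM TAMRA/BHQ-2 forked duplex and 2 mM ATP. Unwinding read as fluorescence (525/598 nm), two reads 2 h apart.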
L3MBTL1 inh: qHTS Assay for the Inhibitors of L3MBTL1; AlphaScreen L3MBTL1–H3K9me1 peptide binding; Lethal(3)malignant brain tumor-like protein 1 (Homo sapiens), Q9Y468; 230,000 compounds, 0.66% hits; Potency, µM (doses to about 57.1 µM), for inactives: at the top dose activity, negative = inhibition, hits mostly inhibitors; AID 485360, 2010; active = well fitted curve in the direction sought with a large enough effect; inconclusive = small, poorly fitted or top-dose-only effect, or another doubt; inactive = no such curve, though single readings can be large; an effect the other way counts as inactive or inconclusive; also: nearly all actives have a fitted effect of over 60% in size
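Displacement of a biotinylated histone H3(1-15) peptide monomethylated at Lys9 (75 nM) from L3MBTL1 (50 nM) was measured by AlphaScreen after a 30 min room-temperature compound incubation; cefsulodin titration served as intraplate control.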
ALDH1A1 inh: qHTS Assay for Inhibitors of Aldehyde Dehydrogenase 1 (ALDH1A1) | Aldehyde dehydrogenase 1A1 (Homo sapiens), P00352 | Purified ALDH1A1, NADH fluorescence, propionaldehyde substrate | Potency, µM (doses to about 75.3 µM), without a hit: at the top dose activity, negative = inhibition, actives largely listed as inhibitors | 220,000 compounds, 7.3% hits | AID 1030, 2008;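 also: plate controls were no enzyme wells and a reference inhibitor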
Lamin A splicing: qHTS Assay for Modulators of Lamin A Splicing | AID 1487, 2009 | HeLa LMNA splicing GFP/RFP minigene ratio, 48 h | Potency, µM (series often up to 46.1 µM), without a hit: top-dose ratio change, negative = inhibition, most hits filed as inhibitors | 200,000 compounds, 0.01% hits; active = well fitted inhibition curve with a large enough effect in the signal ratio, with a control signal flat, not every such curve was filed as active; inconclusive = small, poorly fitted or top-dose-only effect, or effect the other way, or a change in a side signal; the % refers to the signal ratio
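S3 HeLa cells stably expressing lamin A-EGFP splicing minigene plus DsRed2, 600 cells/well, 48 h compound exposure at 37C. Laser-scanning cytometry; analysed as GFP (500-530 nm)/RFP (575-640 nm) total intensity ratio; 0.5% DMSO vehicle.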
An asterisk follows results filed as active; i = inactive; ? = inconclusive; / = not tested or not shown; & = joins results of further samples; ! = repeats disagree; [ ] = remark or other dose. Unless noted, calls follow the shape of the dose curve; as a rule, active = well fitted inhibition curve with a large enough effect (not every such curve was filed as active); inconclusive = small, poorly fitted or top-dose-only effect, or another doubt; inactive = no such curve, though single readings can be large or run the other way. Unless noted, % is scaled to controls: 0 for no effect and ±100 for the full control effect; potency is read from the fitted curve at half-maximal effect.

Every second line gives: JMJD2E inh | RECQ1 helicase | L3MBTL1 inh | ALDH1A1 inh | Lamin A splicing
> CN(C)c1ccc(/C=C2/C(=O)Nc3ccccc32)cc1
→ -6% | -11% | / | ? | /
> CO[C@H]1/C=C/O[C@@]2(C)Oc3c(C)c(O)c4c(O)c(c(/C=N/N5CCN(C)CC5)c(O)c4c3C2=O)NC(=O)/C(C)=C\C=C\[C@H](C)[C@H](O)[C@@H](C)[C@@H](O)[C@@H](C)[C@H](OC(C)=O)[C@@H]1C
→ / | 2% | / | ? | /
> CC(C)(C)c1ccc([C@@H](O)CCCN2CCC(C(O)(c3ccccc3)c3ccccc3)CC2)cc1
→ -1%[25.5 µM] | -7%[25.9 µM] | / | -9%[20.9 µM] | ?
> CN=C(NC#N)NCCSC[C@H]1N=CN=C1C
→ 11%[25.5 µM] | -8%[25.9 µM] | / | 5%[20.9 µM] | ?
> CC1CC2C(C(O)C[C@]3(C)C2CC[C@]3(O)C(=O)CO)[C@]2(C)C=CC(=O)C=C12 (stereo partly drawn)
→ 2% | -1% | / | -1% | /
> OCCN(CCO)c1nc(N2CCCCC2)c2nc(N(CCO)CCO)nc(N3CCCCC3)c2n1
→ ? | -7% | -3% | -13%[20.9 µM] | ?
> CN1[C@@H]2CC[C@H]1CC(OC(c1ccccc1)c1ccccc1)C2 (stereo partly drawn)
→ / | 0% | / | 7%[13.5 µM] | ?
> CC1=C(CC(=O)O)c2cc(F)ccc2/C1=C\c1ccc(S(C)=O)cc1 (stereo not drawn)
→ 35µM*! | 0% | / | -1%&8% | ?
> Cc1c(C)c2c(c(C)c1O)CCC(C)(CCCC(C)CCCC(C)CCCC(C)C)O2 (stereo not drawn)
→ -1% | i | / | 0% | /
> COc1ccccc1NC(=O)Nc1ccc2c(c1)OCCO2
→ 8% | -19% | 3% | -1% | 6%
> O=C(O)C1CCCN1 (stereo not drawn)
→ / | -17% | / | / | /
> CSc1ccc2c(c1)N(CCC1CCCCN1C)c1ccccc1S2 (stereo not drawn)
→ ? | -13%&-6%&-7%&4% | -7% | 1%&-2%&0% | ?
> O=C(C1CCCCC1)N1CC(=O)N2CCc3ccccc3C2C1 (stereo not drawn)
→ -12%&3%&-1% | 16%&-1% | 5% | ? | ?
> CC(=O)Oc1ccc(C2(c3ccc(OC(C)=O)cc3)C(=O)Nc3ccccc32)cc1
→ / | i | / | 5% | /
> c1coc(-c2nc(-c3ccncc3)no2)c1
→ -23% | -12% | 8% | 9% | 10%
> COc1ccccc1-c1noc(-c2ccccc2)n1
→ -11% | -4% | 33%[activator] | ? | -14%
> COc1ccc(-c2nc(-c3ccccc3)no2)c(OC)c1
→ ? | -19% | 31%[activator] | ? | -5%
> Cc1cccc(C)c1OCC(C)N (stereo not drawn)
→ 10%&5%&11% | -8%&0%&0% | / | 11%&3% | ?
> O=C(Nc1ccc(-c2nc3ccccc3s2)cc1)C1=COCCO1
→ ? | -14% | 7% | ? | 15%
> COc1cc(/C=C/C(=O)CC(=O)/C=C/c2ccc(O)c(OC)c2)ccc1O
→ 35µM* | -16%&-11%&-6%&-10% | -24% | 8.9µM*! | ?

Copied from the entries so far for reference:
Every second line gives: JMJD2E inh | RECQ1 helicase | L3MBTL1 inh | ALDH1A1 inh | Lamin A splicing
> CC1=C(CC(=O)O)c2cc(F)ccc2/C1=C\c1ccc(S(C)=O)cc1 (stereo not drawn)
→ 35µM*! | 0% | / | -1%&8% | ?
> Cc1c(C)c2c(c(C)c1O)CCC(C)(CCCC(C)CCCC(C)CCCC(C)C)O2 (stereo not drawn)
→ -1% | i | / | 0% | /
> COc1ccccc1NC(=O)Nc1ccc2c(c1)OCCO2
→ 8% | -19% | 3% | -1% | 6%
> O=C(O)C1CCCN1 (stereo not drawn)
→ / | -17% | / | / | /
> CSc1ccc2c(c1)N(CCC1CCCCN1C)c1ccccc1S2 (stereo not drawn)
→ ? | -13%&-6%&-7%&4% | -7% | 1%&-2%&0% | ?
> O=C(C1CCCCC1)N1CC(=O)N2CCc3ccccc3C2C1 (stereo not drawn)
→ -12%&3%&-1% | 16%&-1% | 5% | ? | ?
> CC(=O)Oc1ccc(C2(c3ccc(OC(C)=O)cc3)C(=O)Nc3ccccc32)cc1
→ / | i | / | 5% | /
> c1coc(-c2nc(-c3ccncc3)no2)c1
→ -23% | -12% | 8% | 9% | 10%
> COc1ccccc1-c1noc(-c2ccccc2)n1
→ -11% | -4% | 33%[activator] | ? | -14%
> COc1ccc(-c2nc(-c3ccccc3)no2)c(OC)c1
→ ? | -19% | 31%[activator] | ? | -5%
> Cc1cccc(C)c1OCC(C)N (stereo not drawn)
→ 10%&5%&11% | -8%&0%&0% | / | 11%&3% | ?
> O=C(Nc1ccc(-c2nc3ccccc3s2)cc1)C1=COCCO1
→ ? | -14% | 7% | ? | 15%
> COc1cc(/C=C/C(=O)CC(=O)/C=C/c2ccc(O)c(OC)c2)ccc1O
→ 35µM* | -16%&-11%&-6%&-10% | -24% | 8.9µM*! | ?

The list goes on:
Every second line gives: JMJD2E inh | RECQ1 helicase | L3MBTL1 inh | ALDH1A1 inh | Lamin A splicing
> COc1ccc(-c2noc(-c3ccccc3F)n2)cc1
→ -6% | -15% | / | -7% | -2%
> Nc1ccn(C2OC(CO)C(O)C2O)c(=O)n1 (stereo not drawn)
→ 9%&12% | 13% | / | 8%&7% | -10%
> O=C(O)[C@H]1CCCN1
→ / | -13%&-1% | / | 9% | /
> CCn1nc(C)c(/C=N/NC(=O)c2ccoc2C)c1C
→ 0% | -8% | -5% | -4% | 5%
> NC1CONC1=O (stereo not drawn)
→ -2%&-75% | -5% | / | 5%&0% | -23%
> c1ccn2cc(-c3ccc4c(c3)OCCO4)nc2c1
→ ? | -7% | / | ? | 18%[46 µM]
> CC(C)(C)c1ccc(C(O)CCCN2CCC(C(O)(c3ccccc3)c3ccccc3)CC2)cc1 (stereo not drawn)
→ -4%&-3% | -5%&-4% | -2% | 0%&-4% | ?
> CCCCC(=O)N(Cc1ccc(-c2ccccc2-c2nn[nH]n2)cc1)C(C(=O)O)C(C)C (stereo not drawn)
→ 5% | 34%[activator] | / | 7% | ?
> Cc1csc(NC(=O)Nc2ccccc2[N+](=O)[O-])n1
→ -21% | i | -10% | ? | 3%[46 µM]
> CCCOc1ccc(-c2cn3ccccc3n2)cc1
→ ? | -2% | 0% | ? | 22%[46 µM]
> NNC(=O)c1ccncc1
→ 138%[activator] | 3% | -2% | -3% | -11%&-3%
> COc1ccc2c3c1OC1CC(O)C=CC31CCN(C)C2 (stereo not drawn)
→ 12% | -3% | 6% | / | /
> COC(=O)c1sccc1NC(=O)Nc1cccc(C(C)=O)c1
→ 1% | i | 0% | -9% | 2%[46 µM]
> O=C(COC(=O)c1cccnc1Cl)c1ccc2c(c1)OCCO2
→ 2% | -5% | 6% | 0% | /

Record cards, as listed above. Order of values: JMJD2E inh, RECQ1 helicase, L3MBTL1 inh, ALDH1A1 inh, Lamin A splicing
Listed for `COc1cc(/C=C/C(=O)CC(=O)/C=C/c2ccc(O)c(OC)c2)ccc1O` : 35µM*, -16%&-11%&-6%&-10%, -24%, 8.9µM*!, ?
Listed for `Cc1c(C)c2c(c(C)c1O)CCC(C)(CCCC(C)CCCC(C)CCCC(C)C)O2` (stereo not drawn) : -1%, i, /, 0%, /

A portion of the library; the hit share may differ from the screen's.
